HNF4A DNA FP: change in binding of human HNF4 alpha to DNA; 360,000 compounds, 0.3% hits; HNF4a-FITC DNA binding, fluorescence polarization, 1 h; activity change, % at 10 µM; in the data active = activity change above about 30%, passing the limit was not always enough;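 also: controls were the assay level and a saturating level of protein; the project sought stronger binding though the title names inhibitors; some compounds called inactive have numbers as strong as hits; positive values seem to mean higher polarization but the record does not say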
Target sequence (P41235 whole entry, looked up): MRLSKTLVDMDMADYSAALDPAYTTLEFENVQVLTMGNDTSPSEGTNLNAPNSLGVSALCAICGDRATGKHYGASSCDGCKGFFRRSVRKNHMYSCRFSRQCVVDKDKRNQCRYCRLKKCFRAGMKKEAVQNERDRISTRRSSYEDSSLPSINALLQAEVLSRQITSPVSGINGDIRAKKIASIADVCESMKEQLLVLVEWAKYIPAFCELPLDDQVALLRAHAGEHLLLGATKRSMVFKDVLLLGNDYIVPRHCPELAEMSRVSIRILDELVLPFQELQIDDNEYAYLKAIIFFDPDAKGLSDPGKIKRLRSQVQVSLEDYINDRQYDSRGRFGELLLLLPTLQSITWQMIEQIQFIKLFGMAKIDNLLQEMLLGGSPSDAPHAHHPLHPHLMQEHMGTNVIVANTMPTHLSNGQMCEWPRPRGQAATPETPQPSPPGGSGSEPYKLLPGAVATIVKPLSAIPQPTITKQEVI
MLL AF4-AF9 inh: inhibitors of human MLL-AF4/AF9 interaction. AlphaScreen, biotin-AF4 peptide binding to FLAG-AF9. 350,000 compounds, 0.47% hits. inhibition, % at 10 µM. P42568;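 active = every replicate reaching a set inhibition limit, whatever the replicate mean, cut at about 25% in these data; inconclusive = mean inhibition reaches that limit but some replicates miss it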;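 also: 0% = plate neutral control median and 100% = total signal loss; the record names both 10 and 1 µM as test concentration; the first replicate is given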
Vif TR-FRET: inhibitors of Vif binding to APOBEC3G peptide, primary screen, biochemical, TR-FRET, GST-Vif 1-94, biotin-A3G peptide, dose response retest (AID 1117319); TR-FRET GST-Vif / biotin-A3G peptide binding; higher % means a stronger effect; test concentration not given here; strong numbers were not always called active; inhibition, %; hits with a dose series show IC50 in µM; 260,000 compounds, 0.57% hits;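 active = above the screen mean plus three standard deviations and confirmed in dose response; inconclusive = results disagree or hit not tested in dose response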;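 also: Vif residues 1-94 fused to GST binding biotinylated APOBEC3G peptide 110-148; 0% = full assay without inhibitor and 100% = GST in place of GST-Vif; retest series ran down from 100 µM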
FGF22 binding: binders of recombinant human FGF22 by thermal shift; AID 651658; calls only at 9.99 µM; 340,000 compounds, 1.5% hits; SYPRO orange fluorescence; percent of sucrose octasulfate shift, DMSO zero; Q9HCT0;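 active = melting point raised past a set limit in the mean and every replicate; inconclusive = no clear call; three in four hits are not shown here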
Target sequence (Q9HCT0 whole entry, looked up): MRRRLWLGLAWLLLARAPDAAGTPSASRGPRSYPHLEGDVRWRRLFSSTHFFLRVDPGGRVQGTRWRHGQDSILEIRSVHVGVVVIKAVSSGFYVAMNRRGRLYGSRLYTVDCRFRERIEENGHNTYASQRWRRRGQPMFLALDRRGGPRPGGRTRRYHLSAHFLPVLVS
rRNA inh HTS: selective bacterial rRNA inhibition in E. coli. E. coli WT GFP vs humanized-ribosome RFP mutants, fluorescence, 24 h; hits give low values; DMSO median 0, no signal -100. GFP signal change (wild-type ribosome), % (test concentration not listed). 350,000 compounds, 1.6% hits. AID 720706;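 active = significant combined selectivity score with lowered wild-type GFP, culture density cut under 30%, mutant RFP and density less affected; inactive = any of these conditions unmet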; also: one replicate is shown; some compounds called inactive have numbers as strong as hits
ALR H2O2 inh: blocks human ALR sulfhydryl oxidase activity; 290,000 compounds, 3.8% hits; P55789; AID 485317; purified ALR, DTT oxidation, H2O2 HRP-luminol luminescence; inhibition, % (concentration not given with the values);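 active = mean and each replicate at 75% or more; inconclusive = only one of the two met; inactive = neither met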;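 also: stock transfer was 7.5 nL into about 7.5 µL; 0% = neutral wells and 100% = wells with inactivated enzyme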
Target sequence (P55789 whole entry, looked up): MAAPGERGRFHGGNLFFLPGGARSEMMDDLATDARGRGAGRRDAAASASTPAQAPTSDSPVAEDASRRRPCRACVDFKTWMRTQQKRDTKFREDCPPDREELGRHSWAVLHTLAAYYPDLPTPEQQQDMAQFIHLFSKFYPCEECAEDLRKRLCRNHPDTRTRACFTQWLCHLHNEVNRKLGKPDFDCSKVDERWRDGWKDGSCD
E coli growth: blocks Escherichia coli growth | OD600, 23 h; hits give low values | OD600 absorbance (test concentration not listed) | 330,000 compounds, 0.21% hits | AID 1053175;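 active = OD600 absorbance below the run mean of sample wells minus 3.6 SD, in any replicate, cut at about 0.56 in these data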;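 also: stock transfer was 300 nL into about 60 µL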
rRNA inh HTS OD600: recorded beside rRNA inh HTS, whose call it bears; OD600 change, %; measured here: OD600 growth;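 optical density of the mix in the first replicate; 0 = DMSO median and -100 = no signal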
rRNA inh HTS RFP: also measured in rRNA inh HTS; calls as there; RFP signal change, %; measured here: RFP humanized mutant strains;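 first replicate; 0 = DMSO median and -100 = no signal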
* hit, by the source's call; i = inactive; ? = inconclusive; · = no result given; + = active, no number; & = joins results of further samples. Not all compounds are listed. The share of hits here may be higher or lower than overall.

Below each SMILES – HNF4A DNA FP, MLL AF4-AF9 inh, Vif TR-FRET, FGF22 binding, rRNA inh HTS, rRNA inh HTS OD600, rRNA inh HTS RFP, ALR H2O2 inh, E coli growth
#1 NC(=O)c1ccc(C(F)(F)F)n(Cc2ccccc2Cl)c1=O
  -1.4, ·, -4%, ·, ·, ·, ·, -6, 0.69
#2 c1ccc(Cc2nc3ccccc3o2)cc1
  3.9, 0.5, 8%, i, 10, 3, -4.5, -1, 0.69
#3 O=C(C[C@H]1C/C=C\CC[C@@H](Cc2ccc(F)cc2)C(=O)OC[C@H]2CCCN2C1=O)NCCO
  -1.0, -15, ·, i, -5, -2, -0.5, -2, ·
#4 Cc1nc([N+](=O)[O-])c(NCCCO)n1Cc1ccccc1
  -4.4, -1.7, 0%, i, 26, 12, 5.2, -1, 0.7
#5 CCC(CC)C(=O)Nc1nnc(S(=O)(=O)N2CCc3ccccc32)s1
  -0.1, -4.0, ·, i, 12, 11, 1.1, ·, 0.73
#6 COc1cc(CNCCNC(=O)c2nonc2N)ccc1OCc1ccc(Cl)nc1
  -0.5, 1.6, ?, i, 4, 5, -2.5, -9, 0.71
#7 Cc1ccsc1C(=O)N1CCCC(CO)(Cc2ccccc2F)C1 (stereo not drawn)
  0.6, -1.5, ·, i, -4, -19, 2.4, -3, ·
#8 COc1ccc(-c2nnn(CC(=O)NCCc3c[nH]c4ccccc34)n2)cc1OC
  -2.3, ·, -3%, ·, ·, ·, ·, 11, 0.68
#9 CC(C)NC(=O)N(C)C[C@@H]1Oc2c(NC(=O)c3ccncc3)cccc2C(=O)N([C@@H](C)CO)C[C@@H]1C
  ·, -2.0, ·, i, -4, -11, -2.3, ·, ·
#10 C[C@H](O)C#Cc1ccc2c(c1)O[C@@H](CN(C)Cc1ccc(-c3ccccc3)cc1)[C@H](C)CN([C@@H](C)CO)S2(=O)=O
  5.4, 0.2&3.2&1.1, 5%, i, -1&-5, 6&4, 5.8&5.0, ·, ·
#11 CCC(C(=O)NC1CCCC1)n1nc(C)n2c(cc3occc32)c1=O (stereo not drawn)
  -3.7, -1.3, 0%, i, 3, 6, -0.7, -4, 0.69
#12 CCOc1cc(/C=N/Nc2cccc(C(=O)O)c2)ccc1OC(=O)c1ccccc1
  -5.0, 3.1, 1%, i, -14, -17, -3.2, ·, ·
#13 O=C(CN1CCN(c2nc(-c3ccccc3)cs2)CC1)NCc1ccc2c(c1)OCO2
  -0.1, ·, 1%, ·, ·, ·, ·, 0, 0.71
#14 CC(C)c1ccc(NC(=O)C2CCCN(S(=O)(=O)c3cccnc3)C2)cc1 (stereo not drawn)
  1.4, -1.3, ·, i, -16, -14, -1.2, 1, 0.67
#15 C=C1CCC2C(C)(C(=O)O)CCCC2(C)C1CCC(CO)CCO (stereo not drawn)
  -1.9, 0.3, ·, i, ·, ·, ·, ·, ·
#16 CC1(C)CC(=O)C=C(c2cccc(OC(=O)c3ccc(Br)cc3)c2)C1=O
  -3.5, 8.2, 4%, i, 2, 9, -1.5, ·, ·
#17 COc1cc([N+](=O)[O-])ccc1NC(=O)NNC(=O)C(C)Oc1ccc(F)cc1F (stereo not drawn)
  6.8, 2.4, ·, i, -1, 2, 1.0, 14, 0.69
#18 COc1ccccc1CN1CC(C(=O)N(C)Cc2[nH]c3ccccc3c2C)CCC1=O (stereo not drawn)
  0.7, 4.1, 6%, i, -2, -9, 2.9, 7, 0.7
#19 COc1ccc(S(=O)(=O)N(C)C[C@@H]2Oc3ccc(N(C)C)cc3CC(=O)N([C@H](C)CO)C[C@@H]2C)cc1
  ·, 2.8, ·, i, 0, -5, 0.3, ·, ·
#20 COc1ccc(C(=O)OCC(=O)NC(C)(C)C)cc1[N+](=O)[O-]
  1.2, 1.3, -3%, i, 19, 13, 5.9, -8, 0.63

(listing goes on)
Below each SMILES – HNF4A DNA FP, MLL AF4-AF9 inh, Vif TR-FRET, FGF22 binding, rRNA inh HTS, rRNA inh HTS OD600, rRNA inh HTS RFP, ALR H2O2 inh, E coli growth
#21 Cc1ccc(NC(=O)/C=C/c2ccc([N+](=O)[O-])s2)cc1
  19, ·, -9%, ·, ·, ·, ·, 53, ·
#22 Nc1cc(N)nc(SCC(=O)NC(=O)NC2CCCC2)n1
  4.1, 2.7, ·, i, -3, -8, 2.6, ·, 0.63
#23 Cc1cc(C)c2cc(C#N)c(SCC(=O)Nc3ccc4c(c3)OCO4)nc2c1
  0.1, 3.7, 19%, i, 7, 2, 1.0, 0, 0.73
#24 S=c1oc(-c2ccncc2)nn1CCc1ccncc1
  -1.0, ·, 0%, ·, ·, ·, ·, ·, 0.72
#25 COc1ccc(OC(C)C(=O)Nc2cccnc2)cc1 (stereo not drawn)
  3.7, ·, 26%, ·, ·, ·, ·, 3, 0.69
#26 c1ccc(Cn2nnc3c(Nc4ccc5c(c4)OCO5)nc(C4CC4)nc32)cc1
  4.3, ·, 24%, ·, ·, ·, ·, ·, 0.77
#27 COC(=O)c1cc(COc2ccc3c4c(c(=O)oc3c2)CCCC4)c(C)o1
  1.5, ·, -2%, ·, ·, ·, ·, -11, 0.72
#28 N=c1sccn1CC(=O)NCCc1ccc(Cl)cc1
  3.4, ·, 4%, ·, ·, ·, ·, 1, 0.72
#29 CN(CC(=O)NC1CC(C)(C)NC(C)(C)C1)S(=O)(=O)c1ccc(Br)cc1
  -2.4, 0.9, ·, i, 6, 11, 1.1, -7, 0.69
#30 COc1ccc(NC(=O)CSc2nnc(CNc3ccc(F)cc3)o2)c(OC)c1
  1.8, ·, 3%, ·, ·, ·, ·, ·, 0.69
#31 O=C(CSc1nc2ccccc2c(=O)n1-c1ccc(F)c(Cl)c1)Nc1ccc2c(c1)CCC2
  0.5, 3.9, ·, i, 5, 6, -2.2, ·, ·
#32 Cc1ccc2c(C(=O)CN3CCC(C(N)=O)CC3)c(C)[nH]c2c1
  0.5, ·, -1%, ·, 7, 9, -0.3, 8, 0.67
#33 Cc1cc([N+](=O)[O-])nn1CC(=O)NCc1ccc(Cl)cc1
  -0.6, -5.5, -2%, i, 8, 14, -0.3, -2, ·
#34 Cc1cc(C=O)c(C)n1-c1ccc(N2CCOCC2)c([N+](=O)[O-])c1
  0.4, 4.9, 2%, i, -17, -5, -1.5, -12, 0.67
#35 COC(=O)c1cc2c(-c3ccccc3)cc3ccccn3c-2c1C(=O)OC
  -2.2, ·, -9%, ·, ·, ·, ·, -4, 0.8
#36 O=C1OCCC1Sc1nc2ccccc2n1-c1ccccc1 (stereo not drawn)
  0.0, ·, 2%, ·, ·, ·, ·, -10, 0.74
#37 CCCOc1ccc(CC(=O)N/N=C\c2ccc(F)cc2)cc1
  -4.7, 1.9, ·, i, 14, 4, -1.5, -10, ·
#38 C[C@H](CO)N1C[C@H](C)[C@@H](CN(C)CC2CC2)Oc2ccc(NC(=O)c3ccncc3)cc2CC1=O
  ·, -2.7, ·, i, 2, -4, -1.7, ·, ·
#39 CC(=O)C1=C(C)NC(=S)NC1c1cc([N+](=O)[O-])ccc1O (stereo not drawn)
  -2.0, 1.5, 24%, i, 12, -6, -0.4, -1, 0.65
#40 O=C(Nc1ccc(Oc2ccccc2)nc1)C1CCCCN1Cc1cccc(OCCO)c1 (stereo not drawn)
  0.1, -0.5, ·, i, -4, -5, -1.8, 0, 0.66

Additional records:
Below each SMILES – HNF4A DNA FP, MLL AF4-AF9 inh, Vif TR-FRET, FGF22 binding, rRNA inh HTS, rRNA inh HTS OD600, rRNA inh HTS RFP, ALR H2O2 inh, E coli growth
#41 CC1CCN(c2ccc(C(=O)NCc3ccc4c(c3)OCO4)cc2[N+](=O)[O-])CC1
  0.9, ·, ·, ·, ·, ·, ·, 0, 0.73
#42 Cc1[nH]c2ccc(C(=O)OCCN(C)C)cc2c1C
  -0.7, ·, 2%&-1%, ·, ·, ·, ·, ·, 0.76
#43 O=C(N/N=C/c1ccc(Cl)cc1Cl)c1ccncc1
  -0.4, 3.0, ·, i, 21, 8, 1.3, 2, ·
#44 COc1ccccc1CNC(=O)c1ccc2c(=O)n3c(nc2c1)CCCCC3
  0.4, 2.1, 0%, i, -32, -31, -3.7, -1, 0.66
#45 CCCCC(=O)Nc1cnc(NC(=O)c2cccs2)cc1C
  -6.4, 6.0, ·, i, -3, 1, -0.9, ·, 0.67
#46 O=C(OCC(=O)c1ccc(Cl)s1)c1ccc2ccccc2n1
  3.2, 5.2, ·, +, 0, -2, -0.2, -7, 0.71
#47 CCOc1ccc(S(=O)(=O)Nc2ccc(S(=O)(=O)Nc3cc(OC)ccc3OC)cc2)cc1
  2.0, ·, 1%, ·, ·, ·, ·, 7, 0.67
#48 CC1=NN(C(=O)c2ccc(Cn3nc(C)cc3C)o2)C(O)(C(F)(F)F)C1 (stereo not drawn)
  -0.9, ·, -3%, ·, ·, ·, ·, -3, 0.65
#49 COc1ccc(NC(=O)Nc2ccc3c(c2)C(=O)N([C@H](C)CO)C[C@@H](C)[C@H](CN(C)Cc2ccc(Cl)c(Cl)c2)OCCCC[C@@H](C)O3)cc1
  ·, 3.0, ·, i, -6, 2, -6.0, ·, ·
#50 CCCC(c1nnnn1Cc1ccco1)N1CCN(c2ccccc2)CC1 (stereo not drawn)
  1.3, -0.9, 2%, i, 12, 17, 3.9, 88*, 0.73
#51 CCC1CCCCN1C(=O)CSc1nc2c([nH]c3ccccc32)c(=O)n1C (stereo not drawn)
  6.5, ·, -1%, ·, ·, ·, ·, -2, 0.76
#52 C/C(=N\NC(=O)C(N)=O)c1ccc2c(c1)OCCO2
  1.0, 1.0, -12%, i, 18, 1, 0.9, -7, ·
#53 Cc1nnc(NC(=O)CCCCCN2C(=O)C3C4C=CC(C4)C3C2=O)s1 (stereo not drawn)
  -1.3, -4.1, -1%, i, -6, -6, -1.2, ·, 0.75
#54 CCN1CCN(C(=S)NCc2ccc(C)cc2)CC1
  -1.8, 1.7, ·, i, 20, 18, -1.8, -30, 0.66
#55 Cc1cc(=O)oc2cc(OCC(=O)NCCCN3CCCC3=O)ccc12
  0.6, -5.5, ·, i, 2, 9, -1.0, -19, 0.71
#56 O=C(CN1CCN(C(c2ccccc2)c2ccccc2)CC1)NC(=O)NCc1ccco1
  -0.2, ·, 5%, ·, ·, ·, ·, ·, 0.68
#57 COc1ccc(N2CC(C(=O)N3CCN(C)CC3)CC2=O)cc1 (stereo not drawn)
  -2.2, -6.2, ·, i, 10, 9, -0.3, -10, 0.65
#58 CN1CCN(c2ccc(NC(=O)c3ccc([N+](=O)[O-])o3)cc2Cl)CC1
  1.0, -2.7, ·, i, -36, -33, -17, -25, 0.31*
#59 CC(C)C[C@H]1CN([C@@H](Cc2ccc(O)cc2)CN2CCC[C@H]2CN2C(=O)C(=O)NC[C@@H]2Cc2ccc(O)cc2)C(=O)C(=O)N1CCc1ccccc1
  -2.5, 0.1, ·, i, -28*, -8.4*, 4.3*, ·, ·
#60 COc1ccccc1C(=O)N1C[C@@H]2[C@H](c3ccccc31)[C@H](CO)N2C(=O)Nc1ccccc1
  ·, 0.6, ·, i, -1, 3, -3.2, ·, ·
#61 CC(NC(=O)c1ccco1)C1CCCO1 (stereo not drawn)
  0.2, ·, 55%, ·, ·, ·, ·, -7, 0.65
#62 CC1=C(C(=O)Nc2ccccc2C)C(c2ccccc2)NC(=O)N1 (stereo not drawn)
  0.8, -5.8, 16%, i, 8, 13, 4.5, -15, 0.71
#63 COc1ccc(CNC(=O)CN(C)CC(=O)Nc2ccccc2Br)cc1
  -2.5, -3.5, ·, i, -5, -2, 1.1, ·, 0.7

Screening data from PubChem.
